Screening results: PubChem BioAssay, several laboratories
Ecoli growth: blocks Escherichia coli growth; OD600, 23 h; active compounds read low; AID 1053175; 330,000 compounds, 0.21% hits; OD600 absorbance (concentration not given with the values);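 active = OD600 absorbance below the run mean of sample wells minus 3.6 SD, in any replicate, cut at about 0.56 in these data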;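 note: stock transfer was 300 nL into about 60 µL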
ALR inh: blocks human ALR sulfhydryl oxidase activity. P55789. purified ALR, DTT oxidation, H2O2 HRP-luminol luminescence. inhibition, % (no concentration beside the values). 290,000 compounds, 3.8% hits. AID 485317;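 active = mean and each replicate at 75% or more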;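 note: stock transfer was 7.5 nL into about 7.5 µL; 0% = neutral wells and 100% = wells with inactivated enzyme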
Target sequence (P55789 whole entry, looked up): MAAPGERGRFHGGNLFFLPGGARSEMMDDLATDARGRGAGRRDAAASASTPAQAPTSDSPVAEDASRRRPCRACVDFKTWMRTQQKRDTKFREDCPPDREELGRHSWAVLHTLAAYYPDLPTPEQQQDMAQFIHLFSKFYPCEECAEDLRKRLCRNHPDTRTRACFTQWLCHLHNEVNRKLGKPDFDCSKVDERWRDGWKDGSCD
UCH37 inh: inhibitors of human deubiquitinating enzyme UCH37 | 330,000 compounds, 0.33% hits | Q9Y5K5 | purified proteasome/UCH37, Ub-AMC cleavage fluorescence | AID 588478 | inhibition, % (concentration not given with the values);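 active = mean of two replicates above 20%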;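 note: 0% = compound-free wells with enzyme and 100% = wells lacking proteasome; stock transfer was 100 nL into about 20 µL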
Target sequence (Q9Y5K5 whole entry, looked up): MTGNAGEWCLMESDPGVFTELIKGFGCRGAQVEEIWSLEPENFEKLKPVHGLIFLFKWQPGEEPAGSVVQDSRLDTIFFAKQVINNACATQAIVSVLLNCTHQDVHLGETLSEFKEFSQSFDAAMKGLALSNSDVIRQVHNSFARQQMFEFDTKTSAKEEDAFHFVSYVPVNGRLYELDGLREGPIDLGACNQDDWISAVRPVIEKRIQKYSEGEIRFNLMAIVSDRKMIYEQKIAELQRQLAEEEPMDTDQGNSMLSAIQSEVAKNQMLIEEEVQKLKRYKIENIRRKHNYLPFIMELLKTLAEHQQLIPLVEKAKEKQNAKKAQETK
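Test system – human UCH37 enzyme supplied as purified proteasome complex · Incubation – 30 min preincubation with enzyme, 25 min cleavage at room temperature · Detection – AMC fluorescence from Ub-AMC cleavage, excitation 355 nm, emission 460 nm · Benchmarks – no-proteasome wells (full inhibition) and compound-free wells (no inhibition)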
HNF4A DNA FP: change in binding of human HNF4 alpha to DNA | activity change, % at 10 µM | P41235 | HNF4a-FITC DNA binding, fluorescence polarization, 1 h | AID 1224865 | 360,000 compounds, 0.3% hits; in the data active = activity change above about 30%, passing the limit was not always enough;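 note: controls were the assay level and a saturating level of protein; the project sought stronger binding though the title names inhibitors; some compounds called inactive have numbers as strong as hits; positive values seem to mean higher polarization but the record does not say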
FGF22 binding: shifts melting point of recombinant human FGF22; AID 651658; recombinant FGF22 thermal shift, SYPRO orange fluorescence; percent of sucrose octasulfate shift, DMSO zero; 340,000 compounds, 1.5% hits; calls only at 9.99 µM;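 active = melting point raised past a set limit in the mean and every replicate; three in four hits are not shown here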
Target sequence (Q9HCT0 whole entry, looked up): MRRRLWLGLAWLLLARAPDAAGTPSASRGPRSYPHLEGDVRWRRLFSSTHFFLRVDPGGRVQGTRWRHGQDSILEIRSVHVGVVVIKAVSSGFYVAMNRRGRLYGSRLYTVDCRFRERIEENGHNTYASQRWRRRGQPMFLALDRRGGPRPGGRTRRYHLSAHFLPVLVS
B2AR ag: agonists of human beta-2 adrenergic receptor inducing internalization. P07550. 340,000 compounds, 0.43% hits. Am2.2-beta2AR cells, FAP receptor internalization, flow cytometry; reference of the scale not given here. response, % (concentration not given with the values);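 active = response above a set limit, near 3 SD of response in nonfluorescent compounds, cut at about 42% in these data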;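 note: stock transfer was 100 nL into about 11 µL; a reference agonist was the positive control; negative values mostly stem from fluorescent compounds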
LANA-H2A inh: blocks KSHV LANA binding to histone H2A/H2B; Q9QR71; cell-free LANA-H2A/H2B peptide, fluorescence polarization; inhibition, % (test concentration not listed); 320,000 compounds, 0.6% hits; AID 2629; in the data active = inhibition mostly above about 10%, no sharp cut-off; inactive = mostly below about 6.7%;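 note: stock transfer was 7.5 nL into about 10 µL; 0% = median of vehicle wells and 100% = median of positive control wells; one replicate is shown; the record names a cut of 25% in any replicate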
Numbers without * were called inactive; i = inactive; · = not tested or not shown; + = active, no number. The list is partial; rates above refer to the full screens.

SMILES	Ecoli growth	ALR inh	UCH37 inh	HNF4A DNA FP	FGF22 binding	B2AR ag	LANA-H2A inh
CCOc1ccc(C(C)=O)cc1CN1C(=O)C(=O)N(CC)C1=O	0.72	0	4.9	3.0	i	-13	-1.7
CCN(C(=O)CSc1nc(C)nc2sc(C)c(C)c12)C1CCS(=O)(=O)C1 (stereo unspecified)	0.66	·	1.6	-2.1	i	3	-4.5
O=C(COc1ccc2cc(Br)ccc2c1)N1CCCC1	0.7	·	2.9	0.4	i	-1	7.2
COc1ccc(Cc2c3cc(OC)c(OC)cc3cc[n+]2C)cc1OC	0.75	-20	8.0	-1.4	·	0	1.3
Cc1ccccc1NC(=O)c1ccc(C)c(S(=O)(=O)N2CCN(C)CC2)c1	0.69	-3	3.1	-0.6	i	3	2.0
Cc1cccc(C(=O)N2CCC(=O)N(C(COCc3ccccc3)Cc3ccccc3)CC2)c1 (stereo unspecified)	0.65	-5	0.5	-0.4	i	9	0.7
COc1nc(Nc2ccc3c(c2)OCO3)nc(OC)n1	0.72	4	3.5	4.2	i	3	-1.1
Nc1nnn(CC(=O)N/N=C/C=C/c2ccccc2)n1	·	-15	·	-0.4	i	15	-4.4
CCCc1ccc(OCc2ccc(C(=O)N/N=C/c3cccc([N+](=O)[O-])c3)o2)c(OC)c1	·	-2	·	-3.1	·	9	5.2
COc1ccc(S(=O)(=O)N2CCCCCC2)cc1C(=O)N(C)Cc1cccs1	0.67	-11	1.0	1.5	i	2	2.6
Cc1ccc(C)c(N2CCN(C(=O)C3CCN(S(=O)(=O)c4c(C)noc4C)CC3)CC2)c1	0.64	-3	0.0	-4.5	i	2	5.1
CSC(=S)NCc1cccnc1	0.7	-15	4.2	3.8	i	6	10
COc1cc(C(=O)N2CCN(C(=O)COc3ccc4ccccc4c3)CC2)cc(OC)c1OC	0.69	-21	28*	-0.9	·	-1	-7.2
Cc1ccc(C)c(S(=O)(=O)Nc2cccc(-n3cnnn3)c2)c1	0.64	-9	1.0	-2.2	i	-2	5.1
O=C(COc1cccc2c1CCNC2=O)NC1CCCCC1	0.67	0	-0.7	1.2	i	-5	-2.7

One compound at a time, as listed above.
O=C(COc1cccc2c1CCNC2=O)NC1CCCCC1 in the list: Ecoli growth: 0.67; ALR inh: 0; UCH37 inh: -0.7; HNF4A DNA FP: 1.2; FGF22 binding: i; B2AR ag: -5; LANA-H2A inh: -2.7
COc1cc(C(=O)N2CCN(C(=O)COc3ccc4ccccc4c3)CC2)cc(OC)c1OC in the list: Ecoli growth: 0.69; ALR inh: -21; UCH37 inh: 28*; HNF4A DNA FP: -0.9; FGF22 binding: ·; B2AR ag: -1; LANA-H2A inh: -7.2
CCOc1ccc(C(C)=O)cc1CN1C(=O)C(=O)N(CC)C1=O in the list: Ecoli growth: 0.72; ALR inh: 0; UCH37 inh: 4.9; HNF4A DNA FP: 3.0; FGF22 binding: i; B2AR ag: -13; LANA-H2A inh: -1.7

New compounds follow:
SMILES	Ecoli growth	ALR inh	UCH37 inh	HNF4A DNA FP	FGF22 binding	B2AR ag	LANA-H2A inh
C[C@]1(C2CCCC2)Cc2cc(OCC(=O)O)c(Cl)c(Cl)c2C1=O	0.66	7	1.9	-4.3	i	-5	3.8
O=C(CNc1ccc(Cl)c(C(F)(F)F)c1)N1CCN(S(=O)(=O)c2ccccc2)CC1	0.64	·	3.1	7.6	i	5	·
Cc1ccc(CN2CCNC(=O)C2CC(=O)N(C)C2CCOCC2)cc1 (stereo unspecified)	0.69	-14	-4.4	-3.2	i	2	13
Cc1ccccc1N1CCN(C2CCCN(C(=O)CCC(=O)N(C)C)C2)CC1 (stereo unspecified)	0.64	·	3.8	0.4	i	3	0.0
Cc1cc(C)n2nc(C(=O)OCC(=O)Nc3ccc(C)c(F)c3)nc2n1	0.62	-2	0.4	2.5	i	1	2.0
CC1=CC(=O)C=C(C)C1=NOc1ccc([N+](=O)[O-])cc1	0.67	14	8.3	0.2	i	14	-2.5
CC(C)Cn1nnc2c(=O)oc3ccccc3c21	0.63	·	1.8	2.2	·	0	·
C=CCc1ccccc1OCCn1nnc2ccccc21	0.69	-7	4.3	-10	i	6	1.8
CC(C)(C)OC(=O)NCCCCCc1nnc(SCC(=O)Nc2cccc(Cl)c2)o1	0.66	-9	3.5	-1.2	·	-1	-4.8
CCOC(=O)c1oc2c(CN3CCN(CCO)CC3)c(O)c(CC)cc2c(=O)c1-c1nc2ccccc2s1	0.73	-3	3.1	1.3	i	-6	3.0
COc1ccc(-c2cn(-c3ccc(SC(F)F)cc3)c3[n+]2CCC3)cc1OC	0.7	-6	6.0	5.1	·	-5	-8.3
CCN(CC(=O)Nc1c(F)cccc1F)C(=O)c1ccc(COc2ccccc2)o1	0.65	2	0.7	4.1	i	1	-4.0
COC(=O)CC1COc2ccccc2N1C(=O)c1ccc(OC)cc1 (stereo unspecified)	0.69	-1	-1.2	-0.9	·	0	7.4
O=C(Nc1ccc(N2CCOCC2)c(Cl)c1)c1ccc([N+](=O)[O-])o1	0.65	·	4.1	-1.9	i	30	·
Fc1ccccc1N1CCN(C(c2ccncc2)c2nnnn2C2CCCC2)CC1 (stereo unspecified)	0.7	-3	5.9	-1.4	i	0	-1.0
Cc1cc(Nc2ccc(Br)cc2)nc2ccccc12	0.56	-3	-8.3	-2.0	i	2	-0.3
COC(=O)c1nc2n(n1)C(c1cccc(Cl)c1)C1=C(CCCC1=O)N2 (stereo unspecified)	0.77	0	7.7	-0.5	i	4	0.6
COc1cccc(CNC(=O)CCl)c1	0.7	·	2.4	-1.6	i	4	·
Cc1nn(-c2ccccc2)c(C)c1NC(=O)COC(=O)c1cc([N+](=O)[O-])ccc1NCCO	0.67	-5	7.6	-0.6	i	6	-6.7
O=S(=O)(Cc1noc(-c2ccc(OC(F)(F)F)cc2)n1)c1ccc(F)cc1	0.63	-8	1.9	0.4	i	-1	1.5
CCC(=O)Nc1nnc(SCCN2CCOCC2)s1	0.68	-2	-2.2	1.0	i	-5	3.5
CC1(C)Cc2nc3sc(C(=O)NCCCO)c(N)c3cc2CO1	0.62	8	3.4	-0.6	i	-5	6.0
COc1ccc2nc3oc(C(=O)N4CCC(C(N)=O)CC4)cc3cc2c1	0.66	-15	-165	2.4	·	-3	-0.9
CCc1cc(OCCCSc2nc(C)cc(=O)[nH]2)ccc1Cl	0.65	-3	2.5	1.3	·	9	-7.6
Cc1ccc(CN2CCN(CC(=O)NC(C)CCc3ccccc3)C2=O)cc1 (stereo unspecified)	0.77	-6	1.5	3.4	i	2	-1.0
CCN(CC)C(=O)CSc1nnc(COc2ccc(OC)cc2)n1N	0.72	-4	3.8	2.7	i	-4	2.8
COC(=O)c1ccccc1NC(=O)CNc1cc(OC)c(OC)cc1C	0.65	36	-0.2	2.6	i	1	-3.7
O=C(CSc1nc(-c2ccccc2)cs1)NCCCN1CCCC1=O	0.66	-1	1.6	-3.3	i	3	2.2
Cc1nnc(SCC(=O)NNC(=O)c2ccc(Cl)cc2)s1	0.67	-7	0.9	-1.0	i	-1	-1.3
O=C(/C=C/c1ccco1)N1CCN(S(=O)(=O)c2cccc([N+](=O)[O-])c2)CC1	0.66	-9	2.1	1.8	i	0	0.0

An excerpt from above, showing only ALR inh, LANA-H2A inh and Ecoli growth.
smiles	ALR inh	LANA-H2A inh	Ecoli growth
Cc1cc(Nc2ccc(Br)cc2)nc2ccccc12	-3	-0.3	0.56
COC(=O)c1nc2n(n1)C(c1cccc(Cl)c1)C1=C(CCCC1=O)N2 (stereo unspecified)	0	0.6	0.77
COc1cccc(CNC(=O)CCl)c1	·	·	0.7
Cc1nn(-c2ccccc2)c(C)c1NC(=O)COC(=O)c1cc([N+](=O)[O-])ccc1NCCO	-5	-6.7	0.67

Next part
SMILES	Ecoli growth	ALR inh	UCH37 inh	HNF4A DNA FP	FGF22 binding	B2AR ag	LANA-H2A inh
Cc1ccsc1/C=N/NC(=O)CN1CCN(S(=O)(=O)c2ccc(Br)cc2)CC1	·	-11	·	-1.1	·	1	-2.8
O=S1(=O)CCC(NS(=O)(=O)/C=C/c2ccccc2)C1 (stereo unspecified)	0.73	·	6.0	-1.6	·	8	4.4
O=C(NCCN1C(=O)S/C(=C\c2ccccc2)C1=O)C1CCN(S(=O)(=O)c2cccs2)CC1	0.69	-3	-7.9	-7.0	·	4	0.7
CCC(c1nnc(SCC(=O)Nc2ccc(C(N)=O)cc2)n1Cc1ccccc1)N(C)C (stereo unspecified)	0.71	-1	-1.9	2.2	i	7	3.7
O=C(COC(=O)c1ccccc1C(=O)c1ccccc1)NCc1ccc(F)cc1	0.73	-1	2.4	1.4	i	7	0.1
COc1ccc(Nc2nc3ccc(OC)cc3s2)cc1	0.68	·	0.0	-2.2	+	2	-1.8
COc1c(Br)cc([N+](=O)[O-])c(OC)c1C(=O)NC(=O)Nc1c(Cl)cccc1Cl	0.63	1	5.2	3.5	i	-6	-3.8
COc1ccc2[nH]c(=O)c(CN(C)C(=O)c3ccncc3)cc2c1	0.73	-9	-53	2.0	·	-3	-2.8
O=C(c1ccccc1)N1CCN(c2n[nH]c(=O)[nH]c2=O)CC1	0.7	-12	-3.9	4.6	i	1	2.3
NS(=O)(=O)c1ccc(CCNC(=O)CNC(=O)COc2ccccc2)cc1	0.66	-5	0.8	2.4	i	7	-4.6
CC(=O)Nc1ccc(S(=O)(=O)Nc2nnc(C3CCCCC3)s2)cc1	0.73	-8	-0.3	1.2	·	3	-2.2
Cc1nc(N2CCN(Cc3ccccc3)CC2)c(C#N)c2c1COC(C)(C)C2	0.69	-8	-1.7	-17	·	1	1.2
O=C1C2C3c4ccccc4C(c4ccccc43)[C@@H]2c2nc3ccccc3n21 (stereo partly specified)	0.76	-15	3.3	2.2	·	-2	-0.9
O=C(CNC(=O)OCc1ccccc1)NCC(=O)Oc1ccc([N+](=O)[O-])cc1	·	·	·	-1.2	i	-8	·
CC(=O)c1c(COC(=O)c2ccccc2)nc2ccccc2[n+]1[O-]	0.72	-2	5.2	-0.6	·	4	0.4
CCCC(=O)NC(=S)Nc1ccc(S(=O)(=O)Nc2ccc(OCC)cc2)cc1	0.67	0	2.4	-3.0	·	24	-1.9
O=S(=O)(Nc1ccc(N=Nc2ccc(O)c3ccccc23)cc1)c1ccccc1	0.76	-12	9.5	7.4	·	11	4.7
O=C1Nc2ccc(NS(=O)(=O)c3cccs3)c3cccc1c23	0.73	73	-5.5	1.5	·	1	-5.9
CCCS(=O)(=O)N1CCC(C(=O)NCc2ccco2)CC1	0.72	-13	0.4	-2.2	·	-4	6.8
COc1ccc(NC(=O)CN(C)S(=O)(=O)c2ccc3c(c2)NC(=O)CS3)cc1	0.63	-8	1.6	-1.9	i	4	0.6
COc1ccc(CN2CC(C(=O)N3CCOCC3)CC2=O)cc1 (stereo unspecified)	0.75	2	-1.3	0.2	·	-1	-2.9
CS(=O)(=O)Nc1ccc(C(=O)Nc2ccccc2Cl)cc1	0.69	-17	0.0	6.3	·	7	5.3
O=C(CSc1nnc(-c2ccccc2)o1)NCC1CCCCC1	0.7	·	2.1	3.0	·	-7	·
CCN1CCN(C(=O)c2cc(COc3c(C)cccc3C)on2)CC1	0.68	-6	5.2	0.7	i	-2	1.7
O=C(CSc1n[nH]c(-c2cccnc2)n1)Nc1cccc(Cl)c1	0.63	-8	0.3	-0.2	i	4	3.3
Cc1ccc(C(=O)OC2=CC(=O)CC(C)(C)C2)cc1	0.75	34	7.3	1.6	·	4	-4.1
O=c1ccc(-c2ccccc2)nn1Cc1ccccc1F	0.7	-3	0.8	1.2	i	-3	-2.6
CCc1ccc(OCCCCN(C)Cc2ccccc2)cc1	0.6	1	4.2	1.0	i	1	-3.4
Cc1ccnc(NC(=O)c2ccc(NC(=O)CC3SC(N4CCCC4)=NC3=O)cc2)c1 (stereo unspecified)	0.69	42	1.0	2.0	i	-5	-3.5
Cc1noc(C)c1S(=O)(=O)N1CCCC(C(=O)NCCc2ccccc2)C1 (stereo unspecified)	0.7	5	-0.9	0.6	·	-3	2.4
O=C(N/N=C/c1cc(Br)ccc1O)c1ccccc1Cl	·	0	·	1.0	·	-2	7.1
